# From PubChem BioAssay
# Sa ugtP lethal: growth inhibition of S. aureus ugtP deletion strain; growth inhibition, % (test concentration not listed); S. aureus RN4220 ugtP deletion, OD600 growth, 16 h; some inactives read as strong as hits; AID 1259309; 0.54% of 330,000 active;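 active = z-score under -3 and OD600 up to 0.15 on both plates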;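 also: plate controls were untreated wells for no effect and antibiotic for full effect; wells of about 80 µL received 100 nL stock; the first replicate is given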
# BJeLR viability: BJeLR cell viability loss; BJeLR (HRASV12) viability, CellTiter-Glo ATP luminescence, 48 h; reference of the scale not given here; inhibition, % (concentration not given with the values); 0.17% of 300,000 active;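 active = replicate mean above 50%; inconclusive = above 50% but judged a plate artefact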;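 also: 50 nL library stock added to about 25 µL; numbers are from one replicate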
# PrP 5UTR inh: inhibition of PrP 5' UTR reporter expression. AID 488862. inhibition, % (no concentration beside the values). cell-based PrP 5' UTR mRNA reporter, plate reader. 0.35% of 340,000 active;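 active = every replicate at 50% or more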;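 also: 0 = median of the neutral control wells; tested in H4 reporter cells; numbers are from one replicate; inactives centre near -14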
# Autofluor counter: counter-screen for toxin protease inhibitors: compound fluorescence | fluorescence intensity (concentration not given with the values) | 3.1% of 360,000 active | compound autofluorescence counterscreen, microsphere flow cytometry; active compounds read high | AID 624483;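 active = at least 3 SD above the mean of all compounds, about 16000 in these data; inconclusive = too few beads counted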;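 also: 100 nL of 1 mM stock went into each well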
# RN4220 kill: kills Staphylococcus aureus RN4220. S. aureus RN4220 growth, OD600, 16 h. inhibition, % (no concentration beside the values). 0.33% of 330,000 active;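 active = z-score of -3 or lower and OD600 up to 0.18 on both plates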;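 also: plate controls were untreated cells for no effect and reference antibiotic for full effect; stock transfer was 100 nL into about 80 µL; one replicate is shown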
# Mtb hypoxia rep: inhibitors of hypoxia-regulated fluorescent reporter in Mycobacterium tuberculosis | M. tuberculosis hypoxia-regulated fluorescent reporter, fluorescence | fluorescence inhibition, % (concentration not given with the values) | 0.1% of 300,000 active | AID 1159583;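 active = 35 to 45% if threefold the growth effect, above 45% if 1.5-fold the growth effect; inactive = the rest, general growth blockers included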;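 also: wells of about 50 µL received 100 nL stock; 0% = vehicle wells and 100% = reference inhibitor wells; whole bacteria with a GFP reporter of the hypoxia response; strong numbers were not always called active; many hits fall short of the cut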
# Mtb hypoxia rep growth: recorded beside Mtb hypoxia rep, whose call it bears; growth inhibition, %; measured here: M. tuberculosis growth (absorbance);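 0% = vehicle and 100% = reference antibiotic; read after six days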
# Starred values were filed as active, the others as inactive; ? = inconclusive; . = not tested or not shown.
SMILES	Sa ugtP lethal	BJeLR viability	PrP 5UTR inh	Autofluor counter	RN4220 kill	Mtb hypoxia rep	Mtb hypoxia rep growth
CC1CCN(c2nc(N3CCCCC3)nc(N3CCCCC3)n2)CC1	24	5	-31	4823	-11	9	2
Cc1cc(NCc2cccnc2)nc(N)n1	10	1	-13	4013	3.0	-1	-3
O=C(COc1ccccc1Cl)Nc1cccnc1	-11	3	-87	4714	-0.8	1	2
CSc1ccccc1NC(=O)CN(c1ccccc1)S(=O)(=O)N(C)C	21	2	-19	2395	29	3	2
CCOC(=O)c1cnc(-n2nc(C)cc2C)nc1NNc1cc(C)nc(-c2ccccc2)n1	-1	27	34	7400	16	-6	9
COc1ccc(NC(=O)/C(=C\c2cc(OC)c(OC)cc2[N+](=O)[O-])NC(=O)c2ccccc2)cc1	1	-5	-19	2486	-2.8	17	4
O=C(OCC(=O)N(C1CCCCC1)C1CCCCC1)c1ccc(Cl)nc1	7	.	-4	6314	3.9	8	-8
COCCn1c(C)cc(C(=O)COC(=O)/C=C/c2c(C)nn(C3CCS(=O)(=O)C3)c2Cl)c1C (stereo unspecified)	4	6	-28	5367	3.8	12	0
CN(C)c1ccc(C=NNc2ccccn2)cc1	10	.	.	.	2.2	5	8
COc1ccccc1/C=C/C(=O)OCC(=O)Nc1ccc(Cl)cn1	1	-1	5	4103	12	19	8
COc1ccccc1C(=O)NCC(=O)OC(C)C(=O)N(C)C1CCCCC1 (stereo unspecified)	15	.	-16	3324	6.4	3	9
Cn1c(Oc2ccccc2NCc2cccc(Br)c2)cc(=O)n(C)c1=O	-7	-4	-4	5951	5.6	.	.
COc1cc(C(=O)N/N=C/c2ccccn2)cc(OC)c1OC	.	2	-12	4041	.	.	.
Cc1nc2cc(-c3ccccc3)[nH]n2c(=O)c1C	4	2	-57	3813	3.5	2	5
CCCc1nnc(SCC(=O)Nc2ccc(C(=O)OCC)cc2)o1	8	-1	-23	3674	3.1	6	4
COc1ccc(Br)cc1C=NN1CCN(Cc2ccccc2)CC1	20	.	.	.	2.1	1	6
CCn1c(=O)n(CC)c2cc(S(N)(=O)=O)ccc21	5	-1	-17	5701	6.7	6	8
Cc1cc2c(=O)n(C)c(SCC(=O)Nc3ccccc3)nc2s1	-2	-6	-21	3856	0.9	9	7
C[C@H](NC(=O)OC(C)(C)C)C(=O)NN=Cc1ccc2nccnc2c1	-1	.	.	.	-0.4	2	11
O=C(CCN1C(=O)C2CCCCC2C1=O)Nc1nc(-c2ccccc2)cs1 (stereo unspecified)	4	-1	-17	6038	2.9	-1	-7
O=C(N/N=C\c1ccc(Br)cc1)c1ccc(Cn2cccn2)o1	.	1	-21	2461	.	.	.
Cc1ccc(S(=O)(=O)C(c2ccccc2)c2c(C)noc2C)cc1 (stereo unspecified)	7	21	4	2478	8.3	10	4
COc1cccc(C(=O)Nc2ccc3c(c2)C(=O)c2ccccc2C3=O)c1	-9	-1	-98	2106	6.7	-11	-6
CCCCNC(=O)N1CCN(c2ccccc2OCC)CC1	1	10	-3	1951	9.5	4	7
Cc1ccc[n+](-c2[nH]c(=O)sc2/C=N/NC(=O)c2ccccc2[O-])c1	.	-4	-14	2465	.	.	.
COc1cc2nc(SCC(=O)NCc3ccco3)n(Cc3ccc(Cl)cc3)c(=O)c2cc1OC	-11	-1	-17	23649*	6.5	1	3
CCOC(=O)C1=C(C)N=C2SCCC(=O)N2[C@@H]1/C=C/c1ccccc1	3	8	5	3008	8.2	.	.
COCCN(C(=O)COC(=O)C(c1ccccc1)c1ccccc1)c1c(N)n(Cc2ccccc2)c(=O)[nH]c1=O	0	-12	-9	.	-1.6	10	5
Cc1cccc(C)c1NC(=S)N/N=C/c1ccc(OCCC(C)C)cc1	.	-1	-26	20711*	.	.	.
CC(C)OCCCNC(=O)C1CCC(=O)N1C(C)C (stereo unspecified)	4	-4	-8	7651	2.4	0	4

# 2 compounds from above with just RN4220 kill.
molecule	RN4220 kill
CCOC(=O)C1=C(C)N=C2SCCC(=O)N2[C@@H]1/C=C/c1ccccc1	8.2
CCn1c(=O)n(CC)c2cc(S(N)(=O)=O)ccc21	6.7

# Later entries.
SMILES	Sa ugtP lethal	BJeLR viability	PrP 5UTR inh	Autofluor counter	RN4220 kill	Mtb hypoxia rep	Mtb hypoxia rep growth
CCCCOC(=O)c1ccc(NC(=O)C(=O)NCCN(CC)CC)cc1	8	-4	-36	2989	4.6	11	8
CCCCCC(=O)N/N=C(\C)c1ccc(NC(=O)c2ccco2)cc1	.	-4	-51	2947	.	.	.
CC1CN(S(=O)(=O)c2cccc(C(=O)NCCC3=CCCCC3)c2)CC(C)O1 (stereo unspecified)	-18	2	-10	4244	-10	6	-3
CCc1ccccc1NC(=O)C1CCCN(S(=O)(=O)c2c(C)noc2C)C1 (stereo unspecified)	-2	8	7	4587	-2.8	-2	11
COC(=O)c1cccc(N2C(=O)c3ccccc3S2(=O)=O)c1	-1	13	-11	3925	2.1	-4	7
Cc1cc(=O)oc2c3c(cc(OCC(=O)NCC4CCC(C(=O)O)CC4)c12)OC(C)(C)CC3 (stereo unspecified)	-6	3	-38	5678	2.5	.	.
CS(=O)(=O)N1CCC(C(=O)N2CCN(c3ccccc3F)CC2)CC1	1	5	-3	5052	2.9	13	2
CCN(CC)S(=O)(=O)c1ccc(N2CCN(C)CC2)c(NC(=O)CSCC(=O)Nc2cccc(C)c2)c1	3	-11	-21	.	5.1	0	1
COc1cc(OC)c(C(=O)O/N=C(\N)c2ccccc2)cc1OC	-1	2	-26	4110	2.9	7	4
CCOC(=O)C(C)Sc1nc(=O)n2ccccc2n1 (stereo unspecified)	7	1	-16	4200	5.5	3	-5
O=C(c1ccco1)N1CCN(C(=O)c2sccc2-c2ccccc2)CC1	-7	2	-9	20729*	5.8	4	10
O=C(O)c1ccccc1NS(=O)(=O)c1ccc2c3c(cccc13)C(=O)N2	7	-14	-23	3303	0.2	13	12
Cc1cnc(C(=O)OCC(=O)Nc2ccc(C)c(S(=O)(=O)N3CCOCC3)c2)cn1	-2	.	-12	4572	4.6	19	8
CNS(=O)(=O)c1cccc(C(=O)OCc2cc(=O)n3cc(Br)ccc3n2)c1	8	16	-22	1976	7.3	8	4
COc1ccc(OCc2cc(=O)[nH]c3ccccc23)cc1	13	-1	-10	3470	5.7	11	10
CCOc1ccccc1N1CCN(C(=O)C2c3ccccc3Oc3ccccc32)CC1	0	2	-10	3361	-11	9	6
O=C(C=CNc1ccccc1Br)c1ccccn1	-8	.	.	.	9.2	4	4
O=C(O)c1cc2nc(C3CC3)cc(C(F)(F)F)n2n1	7	-3	4	6185	1.4	11	4
C1CCC(n2nnnc2CN2CCN(C3CCCC3)CC2)CC1	-1	-1	-7	2199	-4.3	.	.
Cc1cc(C)cc(NC(=O)C(c2ccccc2)N2CCN(CC(=O)N3CCCC3)CC2)c1 (stereo unspecified)	5	.	-19	7978	1.1	8	-4
COCCn1c(SCC(=O)Nc2ccc(F)cc2F)nc2c([nH]c3ccccc32)c1=O	2	5	-2	5100	3.9	8	-5
COc1ccccc1NC(=O)c1cc2ccccc2nc1C	-2	0	-21	3589	7.1	11	10
CCc1ccc(N2C(=O)CC(N3CCC(C(=O)OC)CC3)C2=O)cc1 (stereo unspecified)	.	4	-14	3466	.	.	.
Cc1c(C(=O)N/N=C/c2c(O)ccc3ccccc23)nnn1-c1nonc1N	.	8	2	4304	.	.	.
O=C(OCc1ccc(Br)cc1)c1cccnc1Cl	3	-11	-23	3657	4.5	17	6
COc1ccc(Cc2nnc(NC(=O)CSc3ccccc3)s2)cc1	7	4	-12	7150	8.2	9	3
O=C(CN=C1NC(=O)C(c2ccccc2)(c2ccccc2)N1)NCc1ccc(F)cc1	11	3	-5	3019	1.5	14	1
CN1CCN(Cc2cc3c(cc2[N+](=O)[O-])OCO3)CC1	-1	3	-4	3710	0.0	2	4
Cc1cccc(CN2CCC(C(=O)Nc3cccc(-c4cccc(F)c4)c3)CC2)n1	1	2	-14	4737	0.4	12	4
O=C(/C=C/c1c(Cl)nc2ccccn12)N1CCN(c2ccccc2F)CC1	.	-15	-10	2820	.	.	.
CCCC(=O)Nc1ccc(-c2nc3ncccc3o2)cc1	1	10	-45	2943	1.9	-10	-3
CCOC(=O)N1CCN(C(=O)c2cc3sccc3n2C)CC1	-8	-1	-32	19772*	6.6	9	12
Cc1ccc(C(C(=O)NC(C)(C)C)N(CC2CCCO2)C(=O)CCC(=O)Nc2ccccn2)cc1 (stereo unspecified)	-2	1	-18	4998	3.8	9	4
COC(=O)C(CC(C)C)NC(=O)c1cc(OC)c(OC)c(OC)c1 (stereo unspecified)	-3	-16	6	9214	-1.3	-2	4
Cc1ccc2c(C(=O)CN3CCN(C4CCCCC4)CC3)c(C)[nH]c2c1	-7	-4	2	2697	-0.3	.	.
COc1cccc(C=NNC(=O)c2ccc(OCc3cccc(Br)c3)cc2)c1	-14	.	.	.	2.2	2	-4
O=C(CSc1nnc(-c2cc3ccccc3cc2O)n1Cc1ccco1)c1ccc(F)cc1	27	0	-23	5642	36	3	7
CC(=O)Nc1ccc(C=NNC(=O)CNS(=O)(=O)c2ccccc2)cc1	4	.	.	.	3.5	5	2
COCCN=c1scc(-c2ccc3c(c2)NC(=O)CO3)n1/N=C(\C)c1ccc(O)cc1	.	13	-19	5379	.	.	.
Cc1ccc(N2CC(C(=O)Nc3nnc(SCCC4OCCO4)s3)CC2=O)cc1C (stereo unspecified)	1	-21	-2	5193	-2.8	6	5
COc1ccc(-c2c(C)nn3c(N4CCCCCC4)cc(C)nc23)cc1OC	-4	1	-3	3600	-1.5	-11	21
CCOC(=O)CCSc1nc(C(C)(C)C)cc(C(F)(F)F)c1C#N	6	0	-27	9295	5.2	-6	-8
Cc1cn(-c2cc(NC(=O)c3ccc(C)c(NC(=O)c4cccc(-c5cn[nH]c(=O)c5)c4)c3)cc(C(F)(F)F)c2)cn1	0	4	-5	3246	-8.9	3	2
O=C(COc1ccc2c3c(c(=O)oc2c1)CCC3)NCCCN1CCCC1=O	5	8	-54	5573	-0.3	16	3
COc1ccc(NS(=O)(=O)c2cccc(C(=O)N3CCN(C(=O)c4ccco4)CC3)c2)cc1	3	.	-18	8231	1.4	-4	5
Cc1ccccc1-c1nc(CS(=O)(=O)CC(=O)NC(C)c2ccccc2)c(C)o1 (stereo unspecified)	-2	4	-6	6157	-8.1	2	0
CC1CCN(C(=O)COC(=O)c2n[nH]c3ccccc23)CC1	-10	3	-64	2995	-9.9	-1	1
CN(CCC#N)c1ncnc2scc(-c3ccccc3)c12	1	0	-3	5999	1.6	.	.
COc1ccnc(CS(=O)c2nc3cc(C(O)(F)F)ccc3[nH]2)c1OC (stereo unspecified)	3	-10	2	4034	1.4	-7	8
CC(C)CN(C(=O)COC(=O)COc1ccc2ccccc2c1)c1c(N)n(Cc2ccccc2)c(=O)[nH]c1=O	7	-5	-12	?	5.0	-1	2
CCOc1cc(C(=S)N2CCOCC2)ccc1OC(=O)c1ccc(C)cc1	-5	5	-33	3693	3.5	-7	-15
CCOC(=O)CCCN1CC(O)=C(c2nc3ccccc3s2)C1=N	12	-2	-15	4195	1.5	4	7
C#CCSc1n[nH]c(=O)n1-c1cccc(C(F)(F)F)c1	6	7	-38	5112	2.7	12	5
O=C(CCCN1C(=O)c2cccc3cccc(c23)C1=O)N1CCc2ccccc2C1	-5	-6	-7	2479	9.0	5	9
CC(=O)N/C(=C/c1ccc2c(c1)OCO2)C(=O)NCCO	.	-6	-12	2226	.	.	.
CC1(C)NC(=O)N(CC(O)COC2CCCCC2)C1=O (stereo unspecified)	0	0	-13	3474	0.7	.	.
Clc1ccc2c(NCc3ccccc3)ccnc2c1	3	7	-6	3800	2.7	14	1
Cc1cccc2nc(CNc3ccc(F)cc3)cn12	1	-3	-32	3674	-1.3	.	.

# Hits appear at their usual frequency; overall some 3.9% were active at least once.
